Vaccinia mCherry: inhibitors of vaccinia virus infection (mCherry reporter signal). Vaccinia virus mCherry reporter infection, fluorescence; about a quarter of the inactives have no number. Potency, µM (highest dose often 36.5 µM), for the others: at the highest dose activity change, negative = inhibition, usual class: inhibitors. 0.63% of 310,000 active; active = well fitted inhibition curve with a large enough effect; inconclusive = small, poorly fitted or top-dose-only effect; inactive = no such curve, though single readings can be large or run the other way; tested in A549 cells; further: nearly all actives have a fitted effect of over 35% in size; inactives centre near -10
Vaccinia Venus: inhibitors of vaccinia virus (Venus reporter); 0.46% of 330,000 active; Potency, µM (titrated, usually from 36.5 µM), without a hit: at the highest dose activity change, negative = inhibition, actives largely listed as inhibitors; Vaccinia virus Venus reporter expression, fluorescence; active means well fitted inhibition curve with a large enough effect; inconclusive means small, poorly fitted or top-dose-only effect; inactive means no such curve, though single readings can be large or run the other way; tested in A549 cells; further: nearly all actives have a fitted effect of over 30% in size; inactives centre near -10
An asterisk follows results filed as active; i = inactive; ? = inconclusive; . = no result given; [ ] = remark or other dose. On the % scale 0 is the no-effect control and ±100 the full control effect; potency means the concentration at half of the fitted maximal effect.

No.	structure	Vaccinia mCherry	Vaccinia Venus
1	CCOc1nc(-c2ccccc2)ccc1-c1noc(-c2ccc(C)cc2)n1	-3.7%	4.9%
2	COC(=O)N/N=C/c1cn(CCCOc2ccc(C)cc2)c2ccccc12	-20.3%	-17.6%
3	Cc1sc2nc(CN(Cc3cccs3)C(=O)C3CC3)[nH]c(=O)c2c1C	-0.7%	-20.8%
4	COc1ccc(-c2ccc(C(=O)NCc3cccs3)c3occc23)c(C)c1	14.7%	-7.8%
5	CC1CCCC(NC(=O)Nc2cccs2)C1C (stereo not drawn)	-1.9%	-24.8%
6	COc1ccc(CNC(=O)CSc2nc3ccc(N)cc3s2)cc1	-13.7%	-2.0%
7	CC(C)C(C)/C=C/C(C)C1CCC2C3=CCC4CC(=O)CC[C@@]4(C)C3CC[C@]21C (stereo partly drawn)	-9.9%	0.0%
8	CCc1ccc(NC(=O)c2ccc(F)c(S(=O)(=O)N3CCN(c4ccc(OC)cc4)CC3)c2)cc1	-29.1%	?
9	O=C1COc2ccc(C(=O)COC(=O)c3ccccn3)cc2N1	-10.2%	-3.6%
10	CC(=O)N1CCN(CC(=O)Nc2ccccc2Sc2ccccc2)CC1	-18.3%	-18.5%
11	Cc1c2c(nc3ccccc13)CC(C)(C)CC2=O	-1.4%	-2.4%
12	CC(C)C(=O)N=C1SC2CS(=O)(=O)CC2N1Cc1ccc(Cl)cc1 (stereo not drawn)	i	6.9%
13	CC(C)c1ccc(Nc2nc(Nc3ccc(Cl)cc3)nc(N3CCOCC3)n2)cc1	-14.3%	-17.8%
14	CCCn1cnc2c(c1=O)c1nc3ccccc3nc1n2CCc1ccccc1	-10.5%	-1.6%
15	CCN(CC(=O)N1CCN(Cc2ccccc2)CC1)S(=O)(=O)c1ccccc1	i	-16.3%
16	COc1ccc(C2SCCN2C(=O)c2ccc([N+](=O)[O-])cc2)cc1 (stereo not drawn)	?	0.4%
17	NC(=O)NCCCC(=O)OCC(=O)c1ccc2ccccc2c1	-12.8%	-12.2%
18	CCn1c(CSCc2ccc(Cl)cc2)n[nH]c1=S	-9.8%	-22.2%
19	COc1ccc(C)cc1NC(=O)C/C(C)=N/NC(=O)Cc1cccc2ccccc12	?	-14.7%
20	COc1ccc(NC(=O)CCc2c(C)nn(-c3ccc(N4CCOCC4)nn3)c2C)cc1Cl	-7.6%	-9.0%
21	O=c1cc2c(nn1Cc1ccccc1)-c1ccccc1CC2	i	2.0%
22	CN(C(=O)Nc1ccccc1)C1CCCc2ccccc21 (stereo not drawn)	i	-11.8%
23	Cc1cc(C[n+]2cc(Cl)ccc2N)c2ncccc2c1	-22.1%	15.5%
24	O=C(N/N=C/c1cccs1)c1cncc(Br)c1	-12.5%	-3.8%
25	O=C(/C=C/Nc1ccccc1F)c1ccc(Br)cc1	-18.9%	-11.4%
26	Cc1ccc(N=C(NOCc2ccc(Cl)cc2Cl)c2nonc2N)c(C)c1	-3.6%	-10.6%
27	COc1ccc2c(c1)nc(SCC(O)c1ccccc1)n2C (stereo not drawn)	-18.1%	-15.4%
28	Cc1ccc(CNC(=O)CN(c2cccc([N+](=O)[O-])c2)S(=O)(=O)c2ccccc2)cc1	-1.3%	-15.7%
29	Cc1ccc(N(Cc2cccs2)C(=O)C(C)Oc2ccc(Cl)c(C)c2)cc1 (stereo not drawn)	-9.1%	-14.1%
30	CCNc1nc(Cl)nc(NC2CCCCC2)n1	-20.1%	-6.8%
31	CC(Sc1nncn1-c1ccccc1)C(=O)Nc1cccc([N+](=O)[O-])c1 (stereo not drawn)	i	-20.1%
32	Cc1cc(C)c2nc(SCC(=O)N3CC(=O)Nc4ccccc43)c(C#N)cc2c1	?	?
33	O=C(NCCCN1CCOCC1)C1Cc2c(ccc3ccccc23)O1 (stereo not drawn)	i	-17.3%
34	Cc1nc([N+](=O)[O-])cn1Cc1cccc([N+](=O)[O-])c1	-5.9%	-8.6%
35	O=C(/C=C/c1ccccc1Cl)Nc1nc(-c2cccs2)ns1	-10.2%	-19.7%
36	O=C1CC(N2CCSCC2)C(=O)N1c1cccc(Br)c1 (stereo not drawn)	i	-5.9%
37	CCCN(CCC)C(C)C(=O)NCC1(c2ccccc2)CCCC1 (stereo not drawn)	-13.1%	-21.0%
38	C(=C\c1ccccc1)/C=N/N1CCN(c2ccccn2)CC1	.	?
39	OC(COCc1ccc(Cl)cc1)CN1CCc2ccccc2C1 (stereo not drawn)	i	-10.2%
40	O=c1oc2cc(Oc3ccc(C(F)(F)F)cc3[N+](=O)[O-])ccc2c2c1CCCC2	.	-7.7%
41	Cc1cc(NC(=O)COC(=O)CCNS(=O)(=O)c2cccc(C(F)(F)F)c2)no1	-8.2%	-9.0%
42	COc1ccc(NC(=O)c2c(NC(=O)Cc3ccccc3)sc3c2CCCC3)cc1	-5.5%	-21.1%
43	O=C(Nc1ccc2c(c1)OCCO2)C1CCCN(S(=O)(=O)Cc2ccccc2)C1 (stereo not drawn)	-5.9%	-12.4%
44	CCn1nc(C(=O)OCC(=O)NCC(C)C)c2ccccc2c1=O	4.1%	5.3%
45	COc1ccc(C(=O)Nc2cccc(/C(C)=N\NC(=O)c3ccoc3C)c2)cc1OC	-23.7%	-4.5%
46	NNC(=O)Cc1cccc2ccc(Cl)cc12	-17.8%	-7.3%
47	O=c1oc(-c2cccc(C(F)(F)F)c2)nn1-c1ccc(C(F)(F)F)cn1	-14.6%	-9.9%
48	CCOC(=O)/C(C#N)=C/c1cn(CCC(=O)O)nc1-c1cccc(Cl)c1	-6.4%	-14.3%
49	COc1ccc(-c2nc3c(C)cc(Br)cn3c2Cc2cccc(F)c2)cc1OC	2.9%	-8.0%
50	COc1ccc(-n2nnc3c(=O)n(CC(=O)N4CCCCC4)cnc32)cc1	2.7%	0.6%
51	Cc1ccsc1C(=O)OCC(=O)N1CCOCC1	i	-12.0%
52	Cc1ccc(NC(=O)CN(C)C(=O)c2ccc(NC(=O)CC3SC(N4CCCC4)=NC3=O)cc2)cc1 (stereo not drawn)	i	-0.1%
53	COc1ccc(CCNC(=O)Nc2nc(C(N)Cc3ccccc3)cs2)cc1OC (stereo not drawn)	-2.6%	-16.5%
54	CCN(CC(=O)Nc1c(F)cccc1F)C(=O)CCc1nc2sc3c(c2c(=O)[nH]1)CCCC3	-1.5%	-2.3%
55	COc1cccc(NC(=O)C2CCN(C(=O)N3CC(C)Oc4ccccc43)CC2)c1 (stereo not drawn)	-11.7%	-5.7%
56	O=C(O)CN1C(=O)C(=O)N(Cc2ccc(Cl)cc2Cl)C1=O	i	-0.4%
57	CC(=O)NC1(C(F)(F)F)N=C(c2ccccc2)NC1=O (stereo not drawn)	-11.7%	-0.9%
58	Cc1ccccc1Nc1nc(N)nc(COC(=O)c2cccn2C)n1	-8.9%	-0.9%
59	CCC(C)NC(=O)CO/N=C/c1ccccc1OC(F)F (stereo not drawn)	-15.3%	-13.5%
60	Cc1c(S(=O)(=O)N2CCN(C(c3ccccc3)c3ccccc3)CC2)c(=O)n(C)c(=O)n1C	8.0%	9.8%

(listing goes on)
No.	structure	Vaccinia mCherry	Vaccinia Venus
61	CCCOC(=O)CSC1=C(C#N)C(c2ccc3c(c2)OCO3)CC(=O)N1 (stereo not drawn)	-19.8%	?
62	COCc1cc(CN2CCN(Cc3ccsc3)C(CCO)C2)ccc1OC (stereo not drawn)	-6.6%	-5.2%
63	N#CC1=C(S)N(c2ccccc2)C(c2ccc(-c3ccccc3Cl)o2)NC1=O (stereo not drawn)	-17.4%	0.2%
64	O=C1NC(=O)C(Cc2ccccc2)(Cc2ccccc2)C(=O)N1	-22.0%	-13.1%
65	CN(c1ccc([N+](=O)[O-])cc1/C=N/NC(=O)COc1ccccc1)C1CCCCC1	i	1.4%
66	O=C(CN1CCN(c2ccc(F)cc2)CC1)Nc1ccccc1Br	-0.7%	-5.5%
67	Cc1cccc(-n2nnc3c(=O)n(Cc4ccccn4)cnc32)c1	i	-4.4%
68	O=C(CCCN1C(=O)c2cccc3cccc(c23)C1=O)N1CCN(c2ccccc2)CC1	?	-23.6%
69	CCc1ccc2nc(NC(=O)CCCc3cccs3)sc2c1	-7.5%	-1.0%
70	Clc1ccc(OCCCN2CCCCC2)c(Br)c1	-12.8%	-12.3%
71	CC(NC(=O)CCCN1C(=O)CCn2nc(-c3cn(C)c4ccccc34)cc21)c1ccccc1 (stereo not drawn)	-28.7%	-23.8%
72	Cc1cc(C(F)(F)F)c2c(N)c(C(=O)NCc3ccc(Cl)cc3)sc2n1	-9.9%	-7.8%
73	O=C(Nc1ccccc1)Nc1ccc2ncoc2c1	-7.8%	-9.7%
74	Cc1ccc(/C=C/c2nc3sc(C(=O)O)c(C)c3c(=O)[nH]2)cc1[N+](=O)[O-]	-7.8%	11.9%
75	CC(CCl)n1c(=O)c2ccccc2n1C(=O)c1ccccc1 (stereo not drawn)	-6.6%	-3.7%
76	CC(C)(C)NC(=S)N1CCC2CC1c1cc(-c3ccc4c(c3)OCO4)ccc12 (stereo not drawn)	1.7%	-6.7%
77	COc1ccc(CCNS(=O)(=O)c2ccc3c(c2)NC(=O)CO3)cc1OC	-1.5%	-13.5%
78	CCCCc1c(O)nc(SCC(=O)N2CCOCC2)n(-c2ccc(OC)cc2)c1=O	3.4%	-5.9%
79	Nc1nc2nn(-c3ccccc3)nc2c(=O)[nH]1	i	-0.6%
80	Cc1nnc2n1N=C(c1ccc(OC(F)F)cc1)C(C)S2 (stereo not drawn)	-24.8%	-19.1%
81	CCCCN(C(=O)COC(=O)c1ccccc1)c1c(N)n(CCC)c(=O)[nH]c1=O	-12.7%	-10.5%
82	COc1ccccc1NC(=O)C1CCCN(c2nnc(C)c3c(C)n(-c4ccccc4)nc23)C1 (stereo not drawn)	-21.0%	-23.7%
83	O=C(c1cnn(C(=O)c2ccccc2)c1)c1ccccc1O	i	-8.7%
84	CN(c1ccccc1)S(=O)(=O)c1ccc(NC(=S)NC(=O)C2CC2)cc1	i	-14.3%
85	CC(NCc1ccc(F)cc1)C(=O)NC1CCCCC1 (stereo not drawn)	4.9%	-1.6%
86	Cc1ccc(C(=O)C2C(=O)c3ccccc3C2=O)cc1	-8.0%	34.3%[activator]
87	O=C(Nc1ccc(F)c(F)c1)c1cc(S(=O)(=O)N2CCc3ccccc32)ccc1F	-6.7%	-16.1%
88	CCN(CC(=O)NCc1ccc(Cl)cc1)C(=O)CNS(=O)(=O)c1ccc(NC(C)=O)cc1	i	-8.4%
89	CCOC(=O)[C@@H]1[C@H]2COc3ccc(Br)cc3[C@@H]2N2C(=O)N(c3cccc(F)c3)C(=O)[C@@]12C	-13.3%	-13.6%
90	COc1ccc(NC(=S)N2CCC(NC(=O)c3ccc(F)cc3)CC2)cc1	-5.6%	3.7%
91	O=C(Nc1cccc2ccccc12)N1N=CCC1c1ccccc1 (stereo not drawn)	-13.2%	-0.5%
92	Cc1noc(C)c1S(=O)(=O)Nc1ccc(C(=O)N2CCN(c3cccc(Cl)c3)CC2)cc1	-0.1%	-15.3%
93	CC(=O)Nc1ccc(N(C(=O)c2cnccn2)C(C(=O)NC2CCCCC2)c2ccc(O)cc2)cc1 (stereo not drawn)	i	-10.1%
94	Cc1ccccc1-c1nc(CNC(=O)NC2CCCCC2)c(C)o1	-12.4%	-0.9%
95	CC(C)CCN1CCN=C1Nc1ccccc1	-6.5%	-4.3%
96	Cc1nnsc1C(=O)NCc1c(F)cccc1Cl	-14.4%	-13.6%
97	Cc1ccc(Oc2ccccc2)c(NC=O)c1	i	1.2%
98	Cc1ccc(C(=O)Nc2c(C(=O)NC(C)(C)C)oc3ccccc23)cc1	-7.8%	0.2%
99	Cc1ccc(-c2cn(CCC(=O)O)c(-c3ccc(Cl)nc3)n2)cc1	-6.1%	-4.3%
100	O=C(CSc1ccccc1)NC1=NCCS1	-3.0%	-17.8%
101	CC1(C)OC(=O)NC1=O	-11.7%	0.1%
102	OC[C@@H]1CN(Cc2ccc(F)cc2)C[C@H](n2cnc3c(N4CCN(c5ccccc5)CC4)ncnc32)O1	-14.2%	-10.9%
103	Cc1ccsc1C(=O)N1CC(=O)Nc2ccccc21	-19.9%[1.46 µM]	?
104	NS(=O)(=O)c1ccc(NC(=O)Nc2ccc(S(N)(=O)=O)cc2)cc1	-1.8%[7.34 µM]	-29.6%[7.34 µM]
105	CCC(c1nnnn1Cc1ccccc1)N1CCN(C(=O)c2ccco2)CC1 (stereo not drawn)	.	7.1%

One compound at a time, as listed above. Values in the order: Vaccinia mCherry, Vaccinia Venus
`CC(=O)Nc1ccc(N(C(=O)c2cnccn2)C(C(=O)NC2CCCCC2)c2ccc(O)cc2)cc1` (stereo not drawn) across the screens: i, -10.1%
`O=C(CSc1ccccc1)NC1=NCCS1` across the screens: -3.0%, -17.8%

(next part)
No.	structure	Vaccinia mCherry	Vaccinia Venus
106	Cc1nc2cc(C(=O)O)ccc2n1C1CCCCC1	-4.1%	0.4%
107	CCC(C)NC(=O)CN1C(=O)CN=C(c2ccccc2)c2ccccc21 (stereo not drawn)	i	9.8%
108	O=C(O)CCCNC(=O)Nc1ccccc1	i	-6.6%
109	CC1(C)CC(=O)c2cc(C(=O)NCCc3ccccc3)c(=O)[nH]c2C1	19.5%	-14.0%
110	CC1CCCN(C(=O)c2ccc(CSc3nc4ccncc4n3Cc3ccccc3)cc2)C1 (stereo not drawn)	-24.5%	-17.9%
111	C[C@]12CC[C@H](O)CC1=CC[C@@H]1[C@@H]2CC[C@]2(C)C(=O)CC[C@@H]12	i	-16.6%
112	Cc1ccc(S(=O)(=O)N2CCN=C2SC(C)c2ccccc2)cc1 (stereo not drawn)	-12.6%	-7.6%
113	Cc1cc(N2CCN(c3cc(Cl)ccc3C)CC2)n2nc(-c3ccccc3)nc2n1	-11.6%	-8.2%

Assay outcomes as filed in PubChem BioAssay.
